RE007 growth inh – qHTS Assay for Inhibitors of the HIV-1 protein Vpr. S. pombe RE007 Vpr strain, BacTiter-Glo ATP luminescence, 24 h; control for the full effect not named in the record. Potency, µM (titrated, usually from 92.2 µM), for the others: at the highest dose activity change, negative = less growth. 360,000 tested, 0.21% active. AID 651644, 2012; active = well fitted falling curve with a large enough effect; inconclusive = small, poorly fitted or top-dose-only effect; inactive = no such curve, though single readings can be large or run the other way;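 also: % is scaled to controls: 0 for no effect and ±100 for the full control effect; nearly all actives have a fitted effect of over 50% in size; the assay follows cell death caused by Vpr and the record does not say whether a fall means rescue or toxicity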
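Fission yeast RE007 carrying one integrated HIV-1 vpr copy, seeded at OD 0.01 in PMG+AL medium with 23 nL pinned compound. Grown 24 h at 30 degrees; viability read by BacTiter-Glo luminescence after 5 min.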
Marburg entry inh – qHTS for inhibitors of binding or entry into cells for Marburg Virus; Marburg virus pseudotyped entry inhibition, cell reporter; control for the full effect not named in the record; about a third of the inactives were read at about 46 µM; Potency, µM (titrated, usually from 37.8 µM), inactives show top-dose activity change, negative = inhibition, actives largely listed as inhibitors; 300,000 tested, 1.8% active; AID 540276, 2011; active = well fitted inhibition curve with a large enough effect; inconclusive = small, poorly fitted or top-dose-only effect, or effect the other way; inactive = flat fitted curve, though single readings scatter; tested in HEK293 cells; about a fifth of its hits are not listed in these tables; also: % is scaled to controls: 0 for no effect and ±100 for the full control effect; luciferase read-out
Cruzain inh noDet – qHTS Assay for Promiscuous and Specific Inhibitors of Cruzain (without detergent). Cruzipain (Trypanosoma cruzi), P25779. purified cruzain, Z-FR-AMC fluorescence, no detergent. Potency, µM, without a hit: max response, negative = inhibition, usual class: inhibitors. 200,000 tested, 2.3% active. AID 1476, 2009;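 also: plate controls were enzyme without inhibitor for no effect and buffer without enzyme for full effect; nearly all actives have a fitted effect of over 40% in size; top concentration of the series not given in the record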
Target sequence (P25779 123-467 limits assumed): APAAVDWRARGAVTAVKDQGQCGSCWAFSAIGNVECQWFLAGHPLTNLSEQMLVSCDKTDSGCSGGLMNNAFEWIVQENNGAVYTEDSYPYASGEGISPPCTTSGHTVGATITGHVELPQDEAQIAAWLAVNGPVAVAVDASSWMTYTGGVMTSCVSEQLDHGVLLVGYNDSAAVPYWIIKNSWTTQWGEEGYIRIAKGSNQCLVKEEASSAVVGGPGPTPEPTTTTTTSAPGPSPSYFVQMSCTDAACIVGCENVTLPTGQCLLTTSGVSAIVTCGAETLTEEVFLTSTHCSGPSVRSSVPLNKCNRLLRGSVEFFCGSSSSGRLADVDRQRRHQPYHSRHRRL
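Detergent-free condition (0.00005% Triton X-100) in acetate buffer pH 5.5 with DTT. 1.5 nM enzyme and compound were pre-mixed 15 min, then 2 uM Z-FR-AMC substrate added; reaction progress from fluorescence change between first and third reads (60 s).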
LASV entry inh – qHTS for Inhibitors of binding or entry into cells for Lassa Virus; Lassa virus pseudotype entry inhibition, cell reporter; control for the full effect not named in the record; Potency, µM (titrated, usually from 37.9 µM), inactives show top-dose activity change, negative = inhibition, usual class: inhibitors; 300,000 tested, 1.2% active; AID 540256, 2011; active means well fitted inhibition curve with a large enough effect; inconclusive means small, poorly fitted or top-dose-only effect, or effect the other way; inactive means flat fitted curve, though single readings scatter; tested in HEK293 cells; also: % is scaled to controls: 0 for no effect and ±100 for the full control effect; nearly all actives have a fitted effect of over 50% in size; luciferase read-out
SARS PLpro yeast – qHTS of Yeast-based Assay for SARS-CoV PLP | 330,000 tested, 0.19% active | Potency, µM (titrated, usually from 32.9 µM), without a hit: at the top dose activity, positive = growth rescue | S. cerevisiae expressing SARS-CoV PLpro, growth rescue; control for the full effect not named in the record; active means well fitted rising curve with a large enough effect; inconclusive means small, poorly fitted or top-dose-only effect; inactive means no such curve, though single readings can be large or run the other way; also: 0% is about no effect; nearly all actives have a fitted effect of over 55% in size; growth read by luminescence after 48 h
NS1 inh – qHTS Assay for Inhibitors of Influenza NS1 Protein Function | Potency, µM (titrated, usually from 46.1 µM), inactives show top-dose activity, positive = more growth | AID 2326, 2010 | 270,000 tested, 0.4% active | S. cerevisiae slowed by influenza A NS1, growth recovery by OD600; active means well fitted rising curve with a large enough effect; inconclusive means small, poorly fitted or top-dose-only effect; inactive means no such curve, though single readings can be large or run the other way; also: nearly all actives have a fitted effect of over 50% in size
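In this qHTS, NS1 from influenza A is expressed in budding yeast, where it slows growth. Cells are switched from glucose to 2% galactose medium (pH 6.0, -URA), treated with compound, and growth recovery is read at OD600.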
Cruzain inh Det – qHTS Assay for Promiscuous and Specific Inhibitors of Cruzain (with detergent); Cruzipain (Trypanosoma cruzi), P25779; 200,000 tested, 0.43% active; AID 1478, 2009; Potency, µM, for inactives: max response, negative = inhibition, actives largely listed as inhibitors; purified cruzain, Z-FR-AMC fluorescence, 0.01% Triton;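 also: plate controls were neutral wells for no effect and buffer without enzyme for full effect; nearly all actives have a fitted effect of over 40% in size; top concentration of the series not given in the record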
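Enzyme 1.5 nM, Z-FR-AMC 2 uM, NaOAc 100 mM pH 5.5, DTT 5 mM, Triton X-100 0.01%; 15 min RT compound preincubation; kinetic ex360/em450, 60 s delta.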
StopGo reporter – High Throughput Screening for Foot and Mouth Disease Virus Antivirals | human cells with a luciferase reporter of 2A StopGo recoding; control for the full effect not named in the record | Potency, µM (doses to about 57.9 µM), for the others: at the top dose signal change, negative = less light | 410,000 tested, 1.2% active; active = well fitted falling curve with a large enough effect; inconclusive = small, poorly fitted or top-dose-only effect; inactive = no such curve, though single readings can be large or run the other way; tested in HEK293T cells; also: % is scaled to controls: 0 for no effect and ±100 for the full control effect; nearly all actives have a fitted effect of over 45% in size; luciferase light after 4 h
Numbers without * were called inactive; ? = inconclusive; · = no result given; [ ] = another dose, or the depositor's remark. Unless noted, calls follow the shape of the dose curve; as a rule, active = well fitted curve in the direction sought with a large enough effect; inconclusive = small, poorly fitted or top-dose-only effect, or another doubt; inactive = no such curve, though single readings can be large; an effect the other way counts as inactive or inconclusive. Potency is read from the fitted curve at half-maximal effect. Compounds as they come; any-hit rate near 4.7%.

(1) COc1cc(NC(=O)CSc2ccc(-c3sc(C)nc3C)nn2)cc(OC)c1
(2) Cc1cccc(N2CCN(C(=O)c3ccccc3NC(=O)C3CC=CCC3C(=O)O)CC2)c1 (centres undefined)
(3) CCOc1ccc(NC(c2ccccn2)c2oc(CO)cc(=O)c2O)cc1 (centres undefined)
(4) O=C(CNS(=O)(=O)c1ccc2ccccc2c1)OCC(=O)c1ccc(Br)s1
(5) Cc1ccc(-c2nnc(Nc3ccc(O)cc3)c3ccccc23)cc1S(=O)(=O)NCC1CCCO1 (centres undefined)
(6) O=C(CCC(=O)N1CCOc2ccc(Cl)cc21)NCCCN1CCN(Cc2ccccc2)CC1
(7) CCCCOCCCNC(=S)Nc1ccc(S(=O)(=O)N2CCOCC2)cc1
(8) Cc1ccc(C(=O)NC(C)(COc2nonc2C)COc2nonc2C)cc1
(9) CSc1nc(-c2ccccc2)c(C#N)c(=O)[nH]1
(10) Cc1ccc(S(=O)(=O)c2c(C)cc(C)nc2N2CCCCC2)cc1

assay / entry | 1 | 2 | 3 | 4 | 5 | 6 | 7 | 8 | 9 | 10
RE007 growth inh | · | 21% | -9% | -12% | · | -11% | 2% | 3% | 4% | 10%
Marburg entry inh | · | ? | · | 20% | 10%[46.1 µM] | · | · | -4% | · | -8%[46.1 µM]
Cruzain inh noDet | ? | 5% | · | ? | 1% | · | · | -1% | · | ·
LASV entry inh | -8%[46.1 µM] | 13% | · | 11% | -24%[46.1 µM] | · | · | -1% | · | -4%
SARS PLpro yeast | · | -4% | 24% | 13% | · | -1% | 0% | -1% | -1% | -2%
NS1 inh | · | 12% | 1% | 2% | · | -9% | 1% | -5% | -5% | -9%
Cruzain inh Det | -9.3% | 4.0% | · | -24% | -8.3% | · | · | 2.0% | · | ·
StopGo reporter | -25% | -1% | 52%[activator] | 15% | 8% | -7% | -4% | · | -17% | -10%

(11) CCOC(=O)c1ccc(NS(=O)(=O)c2ccc(-c3cc(C)no3)cc2)cc1
(12) COc1ccc(NC(=O)C2CC(c3ccccc3O)=NO2)cc1OC (centres undefined)
(13) Cc1nn2c(CN(C(=O)CN3CCOCC3)c3ccccc3)nnc2c2ccccc12
(14) COc1cccc2cc(C(=O)NCCC3=CCCCC3)c(=O)oc12
(15) CC1Cc2nc(SCC(=O)NC3CCCCC3)n(C)c(=O)c2S1 (centres undefined)
(16) CCCCNC(=O)c1onc(CSc2ccccc2)c1C(=O)O
(17) CCOc1cc(C(=O)OCC(=O)Nc2ncc(Cl)c(C)c2Cl)ccc1OCC(=O)N1CCOCC1
(18) CCC(Sc1nc2ccccc2c2nc(CCc3c(C)n[nH]c3C)nn12)C(=O)Nc1ccc(F)cc1 (centres undefined)
(19) Cc1ccc(N2C(=O)CC(Nc3ccccc3)C2=O)cc1 (centres undefined)
(20) Cc1ccc(/C=N/N2CCOCC2)s1

assay / entry | 11 | 12 | 13 | 14 | 15 | 16 | 17 | 18 | 19 | 20
RE007 growth inh | · | 9% | -11% | -4% | 12% | 12% | · | · | -7% | -18%
Marburg entry inh | · | 10%[46.1 µM] | -1% | -14%[46.1 µM] | 4% | · | 2% | · | 16% | ?
Cruzain inh noDet | -3% | · | 4% | · | -14% | -8% | 25% | ? | ? | ·
LASV entry inh | -1%[46.1 µM] | 9%[46.1 µM] | -26% | -8% | -6% | · | 5% | ? | 10% | -24%[46.1 µM]
SARS PLpro yeast | · | ? | 6% | 0% | -10% | ? | -27% | · | -2% | 1%
NS1 inh | · | -13% | -5% | · | -15% | 15% | 6% | · | -8% | 0%
Cruzain inh Det | -12% | · | -2.7% | · | -8.6% | 4.9% | -5.5% | 1.0% | 1.8% | ·
StopGo reporter | 3% | -14% | 1% | 41%[activator] | · | -19% | -15% | -26% | · | 16%

(21) CCS(=O)(=O)c1ccc(O)c(NC(=O)COc2ccc(Cl)cc2)c1
(22) CC1Cc2nc(SCC(=O)NCc3ccccc3)n(Cc3ccccc3)c(=O)c2S1 (centres undefined)
(23) CCn1c(SCC(=O)NCc2ccco2)nc2ccccc2c1=O
(24) COc1ccc(/C=C/C(=O)NCCCn2ccnc2)cc1
(25) COc1cc(NC(=O)c2ccccc2Cl)ccc1NC(=O)c1ccco1
(26) CC(=O)c1cccc(NC(=O)c2ccc3nc(Cc4ccccc4)oc3c2)c1
(27) CCn1c(SCC(=O)NCc2ccco2)nnc1C(C)C
(28) COc1ccc(NC(=O)CN(C)C(C)C(=O)N2CCCCC2)cc1 (centres undefined)
(29) CN1C(=O)OC(C)(CCc2ccccc2)C1(C)O (centres undefined)
(30) CCOc1ccccc1NC(=O)C1=C(C)Nc2ncnn2C1c1ccc(C)o1 (centres undefined)

assay / entry | 21 | 22 | 23 | 24 | 25 | 26 | 27 | 28 | 29 | 30
RE007 growth inh | 0% | -10% | -6% | -12% | -21% | · | -19% | 18% | 6% | ·
Marburg entry inh | 19%[46.1 µM] | · | · | ? | 19% | · | -8% | ? | -11%[46.1 µM] | ·
Cruzain inh noDet | · | 1% | · | -11% | 3% | -13% | 12% | 6% | 1% | 14%
LASV entry inh | 6% | · | · | 6% | -23% | ? | -5% | 8% | -14% | -10%[46.1 µM]
SARS PLpro yeast | -1% | 2% | -1% | 5% | 27% | · | 6% | -5% | 6% | ·
NS1 inh | 3% | -1% | 0% | 1% | -40% | · | -6% | 1% | 16% | ·
Cruzain inh Det | · | -2.0% | · | -4.6% | -0.9% | -8.2% | -0.7% | 1.2% | 5.3% | -0.1%
StopGo reporter | 0% | 12% | -7% | 6% | 16% | ? | -9% | -18% | -13% | 4%

(31) Cc1cc(C(=O)COC(=O)c2ccc(F)cc2)c(C)n1C
(32) CCOc1cccc(C2c3[nH]c4ccccc4c3CCN2C(=O)CCc2ccccc2)c1 (centres undefined)
(33) COc1ccc(NC(=O)c2cc(C)on2)cc1OC
(34) O=C(CC1SC(=O)NC1=O)Oc1ccc(/C=N/NC(=O)c2ccccc2O)cc1 (centres undefined)
(35) COC(=O)c1ccc(NC(=O)Cc2ccc(C)cc2)cc1
(36) Cc1ccccc1NC(=O)COC(=O)C1C2CC3OC(=O)C1C3C2 (centres undefined)
(37) CCCCC(CC)COC(=O)c1ccc(N(C)C)cc1 (centres undefined)
(38) Cc1cc(C)n(-c2ccc(S(=O)(=O)N3CCOCC3)cc2[N+](=O)[O-])n1
(39) O=C(NC(=S)NC1CCN(Cc2ccccc2)CC1)c1ccc(F)cc1
(40) O=C(CSc1ncc2c(n1)-c1ccccc1N(Cc1ccccc1)S2(=O)=O)Nc1ccccc1

assay / entry | 31 | 32 | 33 | 34 | 35 | 36 | 37 | 38 | 39 | 40
RE007 growth inh | 1% | · | -9% | 21% | 9% | -12% | 6% | 7% | -5% | ·
Marburg entry inh | ? | · | 0% | · | 13% | 7%[46.1 µM] | · | -3%[46.1 µM] | · | ·
Cruzain inh noDet | · | ? | 4% | · | 8% | · | -7% | · | · | -15%
LASV entry inh | ? | ? | 38% | · | 14% | 6% | · | -10% | · | 8%[46.1 µM]
SARS PLpro yeast | -4% | · | 1% | 0% | 11% | 0% | -5% | 0% | 2% | ·
NS1 inh | · | · | -2% | 2% | -4% | 3% | · | 7% | -4% | ·
Cruzain inh Det | · | 0.5% | 5.2% | · | 4.8% | · | -3.4% | · | · | -1.5%
StopGo reporter | 10% | -25% | 0% | 61%[activator] | 13% | -11% | 0% | -24% | ? | 8%

(41) COc1cc2c(cc1OC)-c1c(OC)c(OC)cc3c1[C@H](C2)N(C)CC3
(42) CC(C)(C)[C@H]1C=C(C(=O)N2CCOCC2)O[C@@H](OCCCCO)C1
(43) O=C(Nc1ccccc1C(=O)N1CCN(c2cccc(Cl)c2)CC1)C1=CSCCO1
(44) O=C(Nc1ccccc1)c1ccc2nsnc2c1
(45) CCOc1ccc(S(=O)(=O)Nc2nc3ccccc3nc2Cl)cc1
(46) COC(=O)CCC(=O)Nc1ccc(Br)cc1
(47) CCCOc1ccc(C(=O)c2ccccc2C(=O)O)cc1OCCC
(48) COc1nccnc1NS(=O)(=O)c1ccc(NCc2cc(Br)ccc2O)cc1

assay / entry | 41 | 42 | 43 | 44 | 45 | 46 | 47 | 48
RE007 growth inh | -13% | 5% | -13% | ? | 5% | -3% | -1% | 12%
Marburg entry inh | -24% | · | ? | ? | · | -16% | 1%[46.1 µM] | ?
Cruzain inh noDet | 0% | · | · | 0% | · | 5% | · | ·
LASV entry inh | -15% | · | ? | 15% | · | -6% | -18%[46.1 µM] | ?
SARS PLpro yeast | 1% | -1% | -8% | -15% | -6% | -4% | 0% | -2%
NS1 inh | -3% | 1% | -16% | -24% | -39% | 6% | 6% | 12%
Cruzain inh Det | -0.9% | · | · | -2.6% | · | -1.4% | · | ·
StopGo reporter | -17% | -17% | -12% | 5% | -15% | -5% | 2% | 46%[activator]
